# Assay outcomes from PubChem BioAssay.
# Lassa entry inh: blocks Lassa virus binding to or entry into cells; Potency, µM (top dose mostly 37.9 µM), for the others: at the highest dose activity change, negative = inhibition, most hits filed as inhibitors; Lassa virus pseudotype entry inhibition, cell reporter; control for the full effect not named in the record; 1.2% of 300,000 active; active means well fitted inhibition curve with a large enough effect; inconclusive means small, poorly fitted or top-dose-only effect, or effect the other way; inactive means flat fitted curve, though single readings scatter; tested in HEK293 cells; further: on the % scale 0 is the no-effect control and ±100 the full control effect; nearly all actives have a fitted effect of over 50% in size; luciferase read-out
# Cruzain Triton: blocks cruzain activity in presence of Triton detergent; P25779; purified cruzain, Z-FR-AMC fluorescence, 0.01% Triton; Potency, µM, without a hit: max response, negative = inhibition, hits mostly inhibitors; 0.43% of 200,000 active; AID 1478; active means well fitted curve in the direction sought with a large enough effect; inconclusive means small, poorly fitted or top-dose-only effect, or another doubt; inactive means no such curve, though single readings can be large; an effect the other way counts as inactive or inconclusive;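 further: plate controls were neutral wells for no effect and buffer without enzyme for full effect; nearly all actives have a fitted effect of over 40% in size; top concentration of the series not given in the record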
# Target sequence (P25779 123-467 limits assumed): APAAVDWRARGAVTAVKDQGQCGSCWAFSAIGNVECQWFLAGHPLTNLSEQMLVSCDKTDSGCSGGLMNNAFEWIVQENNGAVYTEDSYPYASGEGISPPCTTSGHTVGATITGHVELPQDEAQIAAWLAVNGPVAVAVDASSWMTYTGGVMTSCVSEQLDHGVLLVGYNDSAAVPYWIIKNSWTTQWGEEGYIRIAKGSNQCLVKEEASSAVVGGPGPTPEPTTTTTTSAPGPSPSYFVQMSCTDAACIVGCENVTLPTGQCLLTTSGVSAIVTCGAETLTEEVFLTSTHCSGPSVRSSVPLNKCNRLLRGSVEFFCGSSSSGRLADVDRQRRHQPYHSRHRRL
#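 Cruzain (1.5 nM) preincubated 15 min at RT with compound in 100 mM sodium acetate pH 5.5, 5 mM DTT, 0.01% Triton X-100. Reaction started with 2 uM Z-FR-AMC; AMC fluorescence (ex 360/em 450 nm) change over 60 s gave rate.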
# 2A StopGo: FMDV 2A StopGo reporter, luciferase signal; human cells with a luciferase reporter of 2A StopGo recoding; control for the full effect not named in the record; Potency, µM (highest dose often 57.9 µM), inactives show at the highest dose signal change, negative = less light; 1.2% of 410,000 active; active = well fitted falling curve with a large enough effect; inconclusive = small, poorly fitted or top-dose-only effect; inactive = no such curve, though single readings can be large or run the other way; tested in HEK293T cells; further: on the % scale 0 is the no-effect control and ±100 the full control effect; nearly all actives have a fitted effect of over 45% in size; luciferase light after 4 h
# NS1 function inh: influenza NS1 inhibition | S. cerevisiae slowed by influenza A NS1, growth recovery by OD600 | Potency, µM (top dose mostly 46.1 µM), without a hit: at the top dose activity, positive = more growth | 0.4% of 270,000 active; further: actives are rising curves; nearly all actives have a fitted effect of over 50% in size
#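 Read-out: OD600 growth recovery of NS1-expressing budding yeast. Cells grown overnight at 30C in -URA glucose medium, washed, resuspended and diluted 1:100 in 2% galactose assay medium, pH 6.0. Same strain lacking NS1 served as positive control.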
# Cruzain noTriton: inhibitors of Trypanosoma cruzi cruzain without detergent; 2.3% of 200,000 active; purified cruzain, Z-FR-AMC fluorescence, no detergent; AID 1476; Potency, µM, for the others: max response, negative = inhibition, usual class: inhibitors; P25779; active means well fitted curve in the direction sought with a large enough effect; inconclusive means small, poorly fitted or top-dose-only effect, or another doubt; inactive means no such curve, though single readings can be large; an effect the other way counts as inactive or inconclusive;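 further: plate controls were enzyme without inhibitor for no effect and buffer without enzyme for full effect; nearly all actives have a fitted effect of over 40% in size; top concentration of the series not given in the record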
#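 Purified cruzain at 1.5 nM, pre-incubated 15 min with compound at room temperature in 100 mM sodium acetate pH 5.5, 5 mM DTT, 0.00005% Triton X-100. Reaction started with 2 uM Z-FR-AMC; AMC fluorescence increase over 60 s gives rate.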
# RE007 growth inh: less growth of the S. pombe RE007 Vpr strain. S. pombe RE007 Vpr strain, BacTiter-Glo ATP luminescence, 24 h; control for the full effect not named in the record. Potency, µM (highest dose often 92.2 µM), for the others: at the top dose activity change, negative = less growth. 0.21% of 360,000 active; active = well fitted falling curve with a large enough effect; inconclusive = small, poorly fitted or top-dose-only effect; inactive = no such curve, though single readings can be large or run the other way;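 further: on the % scale 0 is the no-effect control and ±100 the full control effect; nearly all actives have a fitted effect of over 50% in size; the assay follows cell death caused by Vpr and the record does not say whether a fall means rescue or toxicity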
#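 Fission yeast RE007 carrying one integrated HIV-1 vpr copy, seeded at OD 0.01 in PMG+AL medium with 23 nL pinned compound. Grown 24 h at 30 degrees; viability read by BacTiter-Glo luminescence after 5 min.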
# Marburg entry inh: blocks Marburg virus binding to or entry into cells; Potency, µM (top dose mostly 37.8 µM), inactives show at the top dose activity change, negative = inhibition, actives largely listed as inhibitors; Marburg virus pseudotyped entry inhibition, cell reporter; control for the full effect not named in the record; about a third of the inactives were read at about 46 µM; 1.8% of 300,000 active; active = well fitted inhibition curve with a large enough effect; inconclusive = small, poorly fitted or top-dose-only effect, or effect the other way; inactive = flat fitted curve, though single readings scatter; tested in HEK293 cells; about a fifth of its hits are not listed in these tables; further: on the % scale 0 is the no-effect control and ±100 the full control effect; luciferase read-out
# SARS PLP yeast: blocks SARS-CoV papain-like protease in a yeast assay | S. cerevisiae expressing SARS-CoV PLpro, growth rescue; control for the full effect not named in the record | Potency, µM (doses to about 32.9 µM), without a hit: at the highest dose activity, positive = growth rescue | 0.19% of 330,000 active | AID 485353; further: 0% is about no effect; nearly all actives have a fitted effect of over 55% in size; growth read by luminescence after 48 h
# Starred values were filed as active, the others as inactive; ? = inconclusive; nt = not tested or not shown; & = joins results of further samples; [ ] = dose if it differs, or a comment. Unless noted, the call rests on the fitted dose curve; in most records, active means well fitted rising curve with a large enough effect; inconclusive means small, poorly fitted or top-dose-only effect; inactive means no such curve, though single readings can be large or run the other way. Potency means the concentration at half of the fitted maximal effect. The order is random; 4.7% or so of the library scored in one or more.
SMILES,Lassa entry inh,Cruzain Triton,2A StopGo,NS1 function inh,Cruzain noTriton,RE007 growth inh,Marburg entry inh,SARS PLP yeast
COc1ccc(CN(C(=O)CN2C(=O)c3ccccc3S2(=O)=O)C(C(=O)NCC2CCCO2)c2ccco2)cc1 (stereo not given),nt,nt,53%[activator],-6%,nt,3%,?,-1%
COC(=O)/C=C/CC(C)OS(N)(=O)=O (stereo not given),nt,nt,-2%,15%,nt,2%,nt,28%
Cc1ccc(NC(=O)c2ccc(Cl)c(NC(=O)c3cccs3)c2)cc1,nt,nt,7%,-41%,nt,-17%,nt,-13%
COc1ccc(CCN2C(=O)C3C4CC(C5C(C(=O)N/N=C\c6ccc(Cl)cc6)=NOC45)C3C2=O)cc1OC (stereo not given),22%,-3.0%,-16%,-9%,?,2%,7%[46.1 µM],4%
C=CCOC(=O)C1=C[C@@H](c2ccc(Br)cc2)C[C@@H](OCc2ccc(CO)cc2)O1,nt,nt,-17%,-1%,nt,-3%,nt,-3%
CCOC(=O)C1=C(COc2ccc(F)cc2Cl)NC(=O)NC1c1cc(C)ccc1C (stereo not given),7%,0.3%,nt,18%,-2%,-2%,-20%,1%
CCn1c(SCC(=O)NCc2cccs2)nnc1-c1ccco1,0%,7.0%,18%,-12%,3%,1%,13%[46.1 µM],-2%
CCN(CC)C(=O)CSc1nc(O)c(Cc2ccccc2)c(=O)n1-c1ccccc1C,28%[46.1 µM],nt,2%,9%,nt,-6%,?,2%
COc1ccccc1CNCC(=O)Nc1ccc(C(F)(F)F)cc1,nt,nt,-5%,?,nt,1%,nt,-2%
CCOC(=O)C1CCCN(C(=O)C2CCN(S(=O)(=O)c3cccs3)CC2)C1 (stereo not given),?,4.1%,-10%,-10%,2%,3%,?,0%
O=C(c1ccc(F)c(S(=O)(=O)N2CCOCC2)c1)N(c1ccccc1)c1ccccn1,?,nt,-27%,nt,nt,-9%,9%[46.1 µM],0%
COc1ccccc1-c1cn[nH]c1-c1ccc(OCc2ccccc2)cc1O,1%[46.1 µM],nt,?,18%,nt,6%,?,-11%
Cc1ccc(-n2c(O)c(/C=C/C=Nc3ccccc3)c(=O)[nH]c2=O)cc1,15%,-8.9%,-23%,7%,-5%,-1%,15%,-4%
Cc1ccc(CCNC(=O)CN2N=C(c3ccc(C)cc3)CCC2=O)cc1,6%[46.1 µM],-0.5%,-10%,nt,14%,nt,nt,nt
Cc1cccc(NC(=S)N2CCN(c3ccc(F)cc3)CC2)c1,-6%[46.1 µM],nt,3%,-2%,nt,-8%,-1%[46.1 µM],0%
CC(C)NS(=O)(=O)c1ccc(CCC(=O)N2CCC(C(N)=O)CC2)cc1,19%[46.1 µM],nt,0%,-6%,nt,3%,16%[46.1 µM],-1%
O=c1oc2c(CN3CCOCC3)c(O)ccc2cc1-c1ccccc1,-3%[46.1 µM],-28%,16%,nt,nt,nt,nt,nt
CCOC(=O)c1c(NC(=O)CSc2nc3ccccc3c(=O)n2-c2ccccc2)sc(C(C)=O)c1C,13%,4.8%,-24%,7%,-29%,?,-9%,6%
Cc1cc(C(=O)Nc2ccc(S(=O)(=O)Nc3onc(C)c3C)cc2)cs1,0%,-0.9%,-11%,?,-3%,3%,3%,-21%
O=C1CSC(c2ccccc2F)N1c1ccccc1 (stereo not given),3%,0.9%,2%,3%,0%,6%,14%,-5%
CCN(CC)S(=O)(=O)c1ccc2c(c1)nc(CCC(=O)Nc1cccc(C(F)(F)F)c1)n2CC,?,-8.5%,-10%,17%,?,14%,11µM*,4%
O=C(NN1C(=O)C2C(C1=O)C1C=CC2C12CC2)c1cccnc1 (stereo not given),nt,nt,7%,nt,nt,?,5%[46.1 µM],0%
CC(C)C(=O)Nc1nc(-c2ccccc2)ns1,?,-1.7%,-27%,-9%,6%,-30%,?,-40%
Cc1ccc2c(c1)S(=O)(=O)c1ccc3ccccc3c1N2,0%[46.1 µM],nt,-8%,nt,nt,-21%,0%,nt
CN(C)S(=O)(=O)c1ccc(N2CCCC2)c(C(=O)NCc2ccc(Cl)cc2)c1,21%,-4.0%,-15%,19%,12%,9%,-28%,-1%
CCOC(=O)c1ccc(NC(=S)N2CCN(C(=O)C3CCCO3)CC2)cc1 (stereo not given),nt,nt,-17%,3%,nt,-1%,nt,7%
O=C(Nc1cccc(Cl)c1N1CCCC1)c1ccc([N+](=O)[O-])o1,-13%,nt,-24%,nt,nt,2%,-24%,0%
CCN(CC)S(=O)(=O)c1ccc(N2CCCC2)c(NC(=O)C2=COCCO2)c1,10%,nt,-5%,nt,nt,5%,10%[46.1 µM],-1%
COc1ccc(OC)c(C2c3c(-c4ccc(Br)cc4)n[nH]c3C(=O)N2c2ccc(Cl)cc2)c1 (stereo not given),?,-1.9%,-24%,nt,16µM*,nt,?,nt
CCOCCCNC(=O)C1CCN(C(=O)Nc2ccc(C)cc2)CC1,10%,4.3%,2%,1%,-2%,-2%,3%,-1%
O=C(CN1C(=O)c2ccccc2C1=O)Nc1ccc(N2CCOCC2)cc1,17%,2.1%,21%,5%,-9%,-3%,14%,24%
CC(OC(=O)c1cc[n+]([O-])cc1)C(=O)Nc1ccc(C(N)=O)cc1 (stereo not given),11%,nt,?,nt,nt,17%,3%,-1%
CCCCN(C(=O)c1ccc(S(=O)(=O)N2CCCC2)cc1)C1CCS(=O)(=O)C1 (stereo not given),0%,nt,-17%,nt,nt,14%,13%,-1%
CC(=O)NCCc1nc2ccccc2n1CCCCOc1ccc(Cl)cc1,?,-9.9%,?,nt,?,nt,?,nt
C=CCOC(=O)COc1cc(C)cc2oc(=O)c3c(c12)CCC3,16%,-12%,-18%,-17%,12%,-11%,0%,?
CC(C)N(C(=O)C(F)(F)F)C(C(=O)NC1CCCCC1)c1ccncc1 (stereo not given),4%,1.9%,9%,2%,7%,-3%,-8%,7%
c1nc(N2CCN(Cc3ccc4c(c3)OCO4)CC2)c2[nH]cnc2n1,8%,-0.8%,0%,-16%,0%,1%,?,-27%
Cc1ccc(-c2[nH]c(-c3ccc(C(=O)O)cc3)nc2-c2ccccc2)cc1,0%,-6.9%,-8%,9%,?,9%,-10%,-21%
CCCn1c(=O)c(C(=O)Nc2ccccc2C)c(O)c2ccccc21,12%,nt,13%,-12%,nt,3%,24%,-8%
COc1ccc(OC)c(-c2csc(-c3cccs3)n2)c1,14%[46.1 µM],nt,13%,-16%,nt,9%,1%[46.1 µM],-7%
Cc1ccccc1NC(=O)Nc1ccc2c(c1)OCO2,4%[46.1 µM],nt,33%[activator],-1%,nt,-16%,-21%[46.1 µM],-3%
Cc1cc(-c2nnc3n2CCCCC3)c(C)n1-c1ccccc1,11%,2.2%,21%,-5%,-4%,2%,-10%&-10%,-3%
COc1ccc(Cl)cc1NC(=O)COC(=O)CNC(=O)c1ccc([N+](=O)[O-])c(C)c1,1%,20µM*,-11%,-19%,?,nt,2%,5%
CCCc1ccc(C2Sc3ccccc3NC3=C2C(=O)c2ccccc23)cc1 (stereo not given),?,-3.5%,-9%,nt,7.9µM*,nt,?,nt
Cc1cc(Cl)ccc1OCc1nnc2n1CCCCC2,nt,nt,2%,2%,nt,8%,nt,1%
COc1ccc(-n2c(C)c(C)c3c(NCCCO)ncnc32)cc1,?,nt,42%[activator],1%,nt,1%,?,-1%
N#C/C(=C\c1cn(Cc2ccccc2)c2ccccc12)C(=O)NCc1ccco1,5%,-5.7%,-6%,-2%,-13%,1%,0%,-26%
O=C(Nc1ccc(-c2csc(Nc3cccc(C(F)(F)F)c3)n2)cc1)c1cc([N+](=O)[O-])cc(C(F)(F)F)c1,nt,nt,?,14%,nt,-6%,nt,1%
COc1ccc(CCn2c(N)c(S(=O)(=O)c3cccs3)c3nc4ccccc4nc32)cc1OC,?,-10%,nt,-36%,-3%,-6%,-17%,-1%
COc1ccc2c(c1)c(=O)c(C(=O)c1ccccc1)cn2Cc1ccc(C)cc1,?,-6.3%,-20%,-40%,-1%,11%,-43%,-11%
Cc1cc(N2CCN(C)CC2)nc2ccc(NC(=S)N3CCN(c4cccc(Cl)c4)CC3)cc12,-5%,nt,3%,-3%,nt,-6%,-2%[46.1 µM],-1%
CN(C)c1ccc(C=NCCC2(O)CCOC(C)(C)C2)cc1 (stereo not given),?,-5.8%,0%,-32%,-9%,27%,?,-8%
CN(C(=O)CS(=O)(=O)c1cccc(Cl)c1)c1ccccc1,-2%,nt,-5%,-9%,nt,-10%,-3%[46.1 µM],1%
C/C(=N\NC(=O)c1cccc([N+](=O)[O-])c1)c1cccnc1,nt,nt,3%,2%,nt,-9%,nt,1%
Cn1c(=O)c2c(nc(NCc3ccccc3)n2CCCc2ccccc2)n(C)c1=O,?,-0.1%,-23%,-33%,4%,1%,?,-8%
CCn1cc(/C=C/c2cc[n+](C)cc2)c2ccccc21,nt,nt,-22%,6%,nt,-19%,nt,-1%
Cc1c(C(=O)N(Cc2ccccc2)C(C)C)oc2ccc(S(=O)(=O)N3CCOCC3)cc12,nt,nt,?,-3%,nt,9%,nt,6%
Cc1ccc(-c2nnc3n2N=C(c2ccccc2)CS3)cc1,-4%,-1.4%,-2%,-6%,-17%,-1%,21%,19%
Cc1ccc(C(=O)NCC(c2ccco2)N2CCOCC2)cc1 (stereo not given),0%,nt,14%,nt,nt,-25%,18%,-3%
O=[N+]([O-])c1ccc(O)c(/C=N/Nc2ncnc3c2cnn3-c2ccccc2)c1,nt,nt,27%,2%,nt,-9%,nt,-2%
COc1ccc(/C=C/c2nc(-c3ccccc3O)n(-c3ccccc3)n2)cc1OC,-17%[46.1 µM],-7.9%,-4%,nt,?,nt,-11%[46.1 µM],nt
Cc1ccc(S(=O)(=O)n2c3ccc(F)cc3c3nc(C)sc32)cc1,?,-5.1%,nt,-27%,-13%,nt,-39%,-69%
Cc1nnc(NC(=O)CSc2ncn(-c3ccccc3)n2)s1,10%,nt,12%,nt,nt,-7%,1%[46.1 µM],-8%
